# gsp agonist = activates gsp, the McCune-Albright syndrome mutation; gsp mutant cells, cAMP HTRF, 30 min; control for the full effect not named in the record; Potency, µM (series often up to 76.9 µM), without a hit: at the highest dose activation (cAMP increase), usual class: activators; 0.13% of 340,000 active; AID 624287; active = well fitted activation curve with a large enough effect; inconclusive = small, poorly fitted or top-dose-only effect, or another doubt; inactive = no such curve, though single readings can be large or run the other way; cell line not stated here;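 note: phosphodiesterase inhibitor Ro 20-1724 added with compounds to block cAMP breakdown; potency is the fitted concentration of half-maximal effect; nearly all actives have a fitted effect of over 60% in size; about a fifth of the inactives were tested at one dose only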
#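 Cells in DMEM/10% FBS with G418 were pretreated with compounds in DMSO plus […] (300 uM stock) for 30 min at 37C. cAMP was measured by HTRF (cAMP-d2 plus anti-cAMP antibody-K) after 30 min at room temperature.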
# ClpP mod = qHTS Assay for Activators of ClpP. ATP-dependent Clp protease proteolytic subunit (Bacillus subtilis (strain 168)), P80244. 1.9% of 340,000 active. Potency, µM (highest dose often 57.5 µM), inactives show at the highest dose activity change, negative = active. purified B. subtilis ClpP, FRET peptide cleavage, 20 min; active = well fitted falling curve with a large enough effect; inconclusive = small, poorly fitted or top-dose-only effect; inactive = no such curve, though single readings can be large or run the other way; note: potency is the fitted concentration of half-maximal effect; the source files actives as falling curves though it sought activators and does not explain the sign; nearly all actives have a fitted effect of over 65% in size; many hits overshoot -100%
# Target sequence (P80244 whole entry, looked up): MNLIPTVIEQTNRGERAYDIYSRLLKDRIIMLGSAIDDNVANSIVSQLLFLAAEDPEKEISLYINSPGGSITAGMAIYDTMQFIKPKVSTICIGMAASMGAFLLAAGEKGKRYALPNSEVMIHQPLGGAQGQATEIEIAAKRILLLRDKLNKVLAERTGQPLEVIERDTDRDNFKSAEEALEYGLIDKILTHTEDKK
#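 ClpP 10 microg/mL final, pH 8 Tris/KCl buffer with BSA, glycerol, Tween-20; compound pinned in; FRET-FV substrate; RT 20 min; Ex320/Em430; ΔFRET vs ADEP 5.8 microM, DMSO, no enzyme.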
# gsp antagonist = gsp mutant antagonism; gsp-mutant cells, cAMP HTRF, 30 min; control for the full effect not named in the record; Potency, µM (highest dose often 76.9 µM), for inactives: at the highest dose activity change, negative = inhibition, hits mostly inhibitors; 0.4% of 340,000 active; active = falling curve of any shape with a large fitted effect; inconclusive = falling curve, mostly with a smaller effect; inactive = flat or rising curve; cell line not stated here;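 note: intracellular cAMP measured with PDE inhibitor Ro 20-1724 present during compound exposure; potency is the fitted concentration of half-maximal effect; % is set by controls: 0 for no effect and ±100 for the full control effect; nearly all actives have a fitted effect of over 65% in size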
#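 G418-selected cells were plated in DMEM/10% FBS for 16-24 h at 37C, then treated with compounds plus the PDE inhibitor […] (300 uM solution added) for 30 min at 37C. Intracellular cAMP was measured by HTRF after 30 min lysis at room temperature.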
# TRPML1 blocker = human mucolipin-1 channel inhibition | Q9GZU1 | TRPML1-inducible cells, Ca2+ dye fluorescence, FDSS; stronger effect = lower value; inhibition of EC80 agonist-evoked calcium signal | activity change, negative = inhibition, % (no concentration beside the values) | 0.02% of 390,000 active; in the data active means activity change below about -50%; inconclusive means about -30% to -50%; inactive means above about -30%;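 note: stimulus is agonist 54-4 at its EC80 concentration; % is set by controls: 0 for no effect and ±100 for the full control effect; compound concentration not given in the record; the text of the record puts the active cut at -80%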
#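 TRPML1-DL cells, Tet-induced overnight (~16 h, 37 °C) at 1,500 cells/well, were loaded with Ca8 no-wash dye plus quencher for 45-90 min at room temperature. Compounds were pinned during FDSS kinetic reading; agonist 54-4 at EC80 (4 uM final) then added.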
# TRPV1 PAM = human TRPV1 potentiation. TRPV1-expressing cells, Fluo-8 calcium influx, capsaicin EC20 potentiation; host cell line not named in the record; control for the full effect not named in the record. 0.02% of 320,000 active. Q8NER1. potentiation, % at 8.33 µM; active means potentiation above 80%; inconclusive means 30% to 80%; inactive means below 30%; note: 0% is about no effect
# Target sequence (Q8NER1 whole entry, looked up): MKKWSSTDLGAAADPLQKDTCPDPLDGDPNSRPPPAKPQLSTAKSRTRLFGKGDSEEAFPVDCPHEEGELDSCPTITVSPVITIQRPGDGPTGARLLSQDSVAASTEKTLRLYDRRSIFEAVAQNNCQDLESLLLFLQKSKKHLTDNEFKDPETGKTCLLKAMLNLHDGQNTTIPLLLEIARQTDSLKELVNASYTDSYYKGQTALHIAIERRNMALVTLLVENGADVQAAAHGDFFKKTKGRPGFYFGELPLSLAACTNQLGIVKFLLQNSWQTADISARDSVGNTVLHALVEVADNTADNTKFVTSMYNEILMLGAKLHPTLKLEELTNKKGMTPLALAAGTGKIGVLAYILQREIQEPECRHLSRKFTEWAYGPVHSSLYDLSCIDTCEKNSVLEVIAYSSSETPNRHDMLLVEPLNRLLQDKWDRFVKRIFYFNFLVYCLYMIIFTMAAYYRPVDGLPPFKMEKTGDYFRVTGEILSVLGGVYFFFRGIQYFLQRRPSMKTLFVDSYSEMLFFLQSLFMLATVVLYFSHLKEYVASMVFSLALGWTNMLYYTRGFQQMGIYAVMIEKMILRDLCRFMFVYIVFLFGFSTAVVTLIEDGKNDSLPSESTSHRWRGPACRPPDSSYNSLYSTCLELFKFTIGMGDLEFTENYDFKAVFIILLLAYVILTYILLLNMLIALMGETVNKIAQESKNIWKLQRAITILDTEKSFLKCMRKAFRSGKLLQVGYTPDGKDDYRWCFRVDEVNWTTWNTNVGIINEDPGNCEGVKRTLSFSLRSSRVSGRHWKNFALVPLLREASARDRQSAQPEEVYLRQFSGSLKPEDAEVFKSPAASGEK
#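 Cells expressing TRPV1 were dye-loaded with Fluo-8 and read kinetically: 10 s baseline, 3 min after compound (agonist portion), then 2 min after EC20 capsaicin (allosteric enhancer portion). Calcium-bound dye fluorescence at 480/520 nm.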
# Menin-MLL FL inh = inhibitors of human menin-MLL interaction, wild-type MLL peptide | FP activity change, % at 61.4 µM | 290,000 tested, under 10 active | Fluorescence polarization, fluorescein-MLL peptide displacement from menin | AID 1766; inconclusive = falling polarisation curve, or a change in total fluorescence; inactive = total fluorescence flat and polarisation flat or rising; no compound was filed as active; the % refers to the polarisation; negative = inhibition;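 note: % of control where 0% means no effect; inhibitors lower the polarisation; unlabelled MLL peptide was the positive control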
# Sfp inh = inhibitors of Bacillus subtilis Sfp phosphopantetheinyl transferase | Q9F4F7 | Biochemical Sfp PPTase activity, qHTS | Potency, µM, inactives show max response, negative = inhibition, most hits filed as inhibitors | 3.5% of 310,000 active; active = well fitted inhibition curve with a large enough effect; inconclusive = small, poorly fitted or top-dose-only effect, or another doubt; inactive = no such curve, though single readings can be large or run the other way;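 note: the enzyme is Sfp with the accession as filed and its product quenches rhodamine fluorescence; potency is the fitted concentration of half-maximal effect; 0% = enzyme reaction without inhibitor and -100% = no enzyme wells; top concentration of the series not given in the record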
#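 Fluorescence-quenching assay: 15 nM Sfp-PPTase preincubated 15 min at room temperature with compound, then 5 uM rhodamine-CoA and 12.5 uM BHQ-2-labelled YbbR peptide added. Fluorescence (ex 525/em 598 nm) read at start and after 30 min; difference gives rate.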
# An asterisk follows results filed as active; ? = inconclusive; . = not tested or not shown; & = joins results of further samples; ! = repeats disagree; [ ] = remark or other dose.
SMILES,gsp agonist,ClpP mod,gsp antagonist,TRPML1 blocker,TRPV1 PAM,Menin-MLL FL inh,Sfp inh
O=C(c1cc([N+](=O)[O-])ccc1Cl)N1CCN(c2ccccc2)CC1,-6%[15.4 µM],-1.4%,8%,12,-9,2.1,-15%
CC(C)CCNC(=O)CN1N=C(c2ccc(Cl)cc2)CCC1=O,4%,-1.3%,-1%,?,8,5.6,-2%
Cc1ccccc1-c1nnc(SCC(=O)Nc2cccnc2Cl)o1,-1%,.,6%,-12,.,.,.
COc1ccc(Nc2nc3c(C)cccn3c(=O)c2C=O)cc1,5%,2.1%,2%,-1,-1,9.5,8%
C(=N\Nc1ccccn1)/c1ccc(N2CCOCC2)cc1,-6%[15.4 µM],?,-7%,-19,-15,?,40µM*
CCC(CC)C(=O)c1c[nH]c(C(=O)NCc2ccc(F)cc2)c1,-19%,1.5%,4%,-18,-2,2.9,5%
CCC(=O)NCCn1ccc2ccccc21,1%,-1.0%,12%,32,8,0.2,7%
CC(=O)Nc1ccc(/C=N/N2C(=O)NC(C)(c3ccc(OC(F)F)cc3)C2=O)cc1 (stereo not given),7%,-1.0%,-2%,-3,-3,-2.2,-4%
CC(/C=C/c1ccccc1)NC(N)=O (stereo not given),-6%,-3.5%,2%,2,16,-3.2,10%
COc1ccccc1NC(=O)c1ccc(CS(=O)(=O)c2ccc(C)cc2)cc1,-41%[inhibitor],0.1%,-18%,-18,10,-2.2,6%
N#CCCn1cc(/C=N/O)c(-c2ccc(Cl)cc2)n1,-7%,-2.7%,-1%,-7,-3,-1.6,6%
CN1CCCN(C(=O)c2ccc(Cl)cc2)CC1,-6%[15.4 µM],0.5%,5%,8,5,-5.6,12%
COC(=O)c1oc2c(c1C)C1(CCC2)SCCS1,-59%[inhibitor],2.1%,-11%,8,-1,2.2,1%
Cc1ccc(C(=O)Nc2c(C)cc(C)c3cccnc23)cc1,?,-4.6%,-6%,26,?,1.0,-22%
N#CCCn1cc(CNCc2ccccc2)c(-c2cccc([N+](=O)[O-])c2)n1,-5%,.,0%,-6,6,-3.0,10%
CN1CCCC(OC(=O)c2ccc(Cl)cc2)C1 (stereo not given),17%,.,2%,-5,?,8.6,-16%
O=C(CSc1nc2ccccc2c(=O)n1CCCN1CCOCC1)Nc1ccccc1OC(F)F,-27%,1.5%,-21%,44,.,.,.
CCn1c(=N)n(CC(=O)C(C)(C)C)c2ccccc21,-28%,-8.3%,-27%,-18,7,0.9,-3%
CC(c1ccon1)N(C)C(=O)c1ccc2nc(Cc3cccc(Cl)c3)oc2c1 (stereo not given),-12%,-3.4%,-2%,5,3,.,2%
Cc1cccnc1NC(=O)c1cccc(NC(=O)CC2SC(N3CCCCC3)=NC2=O)c1 (stereo not given),-9%,-2.8%,13%,2,1,.,.
Cc1ccc2cc(C(c3nnnn3Cc3ccccc3)N3CCc4ccccc43)c(=O)[nH]c2c1C (stereo not given),3%,-8.2%,-21%,9,3,-6.4,50µM*
COc1ccc([C@H]2CC(=O)C=C(c3cccc(CO)c3)C2)cc1OC,.,-0.3%,4%,-3,4,.,.
CC(C)(C)NC(=O)N1CCCN(c2ccc(C(F)(F)F)cn2)CC1,21%[15.4 µM],-0.9%,12%,-4,-20,-2.0,-3%
Cc1c(C(=O)Nc2ccc(F)cc2)oc2ccc(S(=O)(=O)N3CCCC3)cc12,-16%,-1.0%,-4%,7,-12,-0.7,0%
N=c1ccn(Cc2c(Cl)cccc2Cl)cc1,?,.,8%,-9,-5,0.8,15%
CC(C)C[C@@H](CNCC(=O)[C@H](Cc1c[nH]c2ccccc12)NC(=O)c1[nH]cnc1C(=O)N[C@@H](C)CN)NC(=O)c1nc[nH]c1C(=O)N[C@@H](C)C(=O)O,.,-1.2%,6%,13,.,.,.
Cc1cc(C)cc(NC(=O)c2cc(Cl)sc2Cl)c1,0%,-23%,6%,-9,21,1.1,-2%
CCOC(=O)c1c(NC(=O)CNCCOC)sc2c1CCCC2,-6%,-7.7%,-4%,-1,-13,2.8,-2%
COCC(C)n1c(SCC(=O)NC(=O)Nc2ccc3c(c2)OCCO3)nc2ccccc2c1=O (stereo not given),-16%,-0.8%,0%,44,?,-1.3,3%
N#CCCN(Cc1cccnc1)C(=S)NC(=O)c1ccco1,14%[15.4 µM],-1.5%,-15%,11,-7,0.3,12%
Cc1c(NC(=O)CSc2n[nH]c(-c3ccccc3)n2)c(=O)n(-c2ccccc2)n1C,-8%,-1.3%,13%,6,-13,-1.0,0%
CC(C)CN(CCCNC(=O)CN1C(=O)COc2ccc(S(=O)(=O)N3CCOCC3)cc21)CC(C)C,26%,0.6%,9%,22,-10,.,24%
COc1ccc(C2C(C(N)=O)=C(C)Nc3nc(CCCO)nn32)cc1 (stereo not given),-2%[15.4 µM],0.3%&-0.1%,19%,7&-6,4,-1.8,9%
O=C(CCNC(=O)C1CCN(S(=O)(=O)c2ccc(F)cc2)CC1)NCc1cccc(Cl)c1,4%,1.1%,4%,0,2,.,14%
O=C1N/C(=C\c2ccccc2)c2ccccc21,6%,?,13%,-6,0,-0.2,7%
COc1ccc(C(=O)N2CCC(C(=O)NCc3ccccn3)CC2)cc1,0%,-0.2%,0%,-9,-5,1.0,4%
CC(C)(C)c1ccc2c(c1)N(CC(=O)N1CCCC1)C(=O)CO2,3%,0.1%,-36%,-14,-2,-1.6,15%
CCOc1nc(Oc2cccc(C(=O)O)c2)nc(Oc2cccc(C(=O)O)c2)n1,2%,-2.9%,-5%[15.4 µM],6,11,0.0,21%
Cc1occc1C(=O)Nc1ccc(S(=O)(=O)N2CCCC2)cc1,-8%,-3.2%,4%,-2,-10,-0.6,5%
CC(CN1c2ccccc2Sc2ccccc21)N(C)C (stereo not given),.,-3.1%&-1.1%,12%,15,-6,3.7&4.3&0.4&1.1,50µM*!
O=c1c2ccccc2nc(-c2ccc(Cl)c(Cl)c2)n1O,-28%,1.4%,4%,3,8,3.0,4%
Cc1cc(Nc2cc(F)ccc2C)n2ncnc2n1,13%,-2.0%,8%,8,-8,1.7,3%
CCCn1nc(C(=O)Nc2cc(OCC)c(N3CCOCC3)cc2OCC)c2ccccc2c1=O,-25%,-1.2%,-1%,7,.,.,.
O=C(Nc1ccc(F)cc1)N1CCCN(c2ccc(C(F)(F)F)cn2)CC1,?,.,0%,2,2,3.5,23%
CCOC(=O)C1(CC)CC(CSc2nc3ccccc3[nH]2)OC1=O (stereo not given),?,-0.4%,7%,7,-7,-0.2,-2%
O=C(Nc1ccc([N+](=O)[O-])c(NC(=O)C2CCCO2)c1)C1CCCO1 (stereo not given),11%,1.5%,-4%,-5,-3,5.4,-6%
CC(=NC1CCCCC1)c1ccc(O)cc1O,?,0.5%,.,22,.,.,.
COc1ccccc1N1C(=O)N(CC(=O)C(C)(C)C)c2ccccc2S1(=O)=O,11%,-2.4%&-3.5%,-3%,-7,-20,1.1,9%
CCC(C)c1ccc(OCC(=O)NNC(=O)C2CCCCC2)cc1 (stereo not given),24%,-0.3%,2%,-6,-13,.,8%
O=S(=O)(c1ccc(F)cc1)c1nc(-c2ccccc2F)oc1N1CCCCC1,-5%,-5.6%,?,27,-5,4.8,?
CCn1c(Cc2c(C)[nH]c3ccccc23)n[nH]c1=S,-7%,-0.5%,-4%,-15,13,1.5,0%
CCOc1cccc(-c2c(C(=O)N/N=C(\C)c3ccccn3)nnn2-c2nonc2N)c1,-21%,2.0%,-10%,-9,28,.,32µM*
CC1=NNC(=O)C1Oc1ccccc1 (stereo not given),12%,.,-1%,1,5,-0.5,8%
O=C(/C=C/c1ccc2c(c1)OCO2)Nc1nc(-c2ccccc2)cs1,-1%,?,-18%,-1,6,0.2,6%
COc1ccc(CC(=O)OC(C)C(=O)Nc2c(C)n(C)n(-c3ccccc3)c2=O)cc1OC (stereo not given),0%,2.2%,?,3,.,.,.
c1ccc2c(N3CCCCC3)nc(N3CCOCC3)nc2c1,-46%[inhibitor],-18%,-9%,-7,-24,-3.6,-1%
Cc1csc(SCC(=O)N(C)CC(=O)Nc2ccccc2Cl)n1,16%,?,14%,-8,-6,.,.
COc1ccc(NC2CC(=O)N(c3cccc([N+](=O)[O-])c3)C2=O)cc1 (stereo not given),8%[15.4 µM],-1.7%,3%,13,26,-2.0,1%
O=C(NCCc1c[nH]c2ccccc12)c1cc(Cl)c2c(c1)OCO2,24%,.,-10%,-4,-4,0.5,2%
O=C(O)CCCN=C1NC2(CCCC2)Cc2ccccc21,-2%,-1.1%,0%,-9,?,6.6,3%
# Continuation:
SMILES,gsp agonist,ClpP mod,gsp antagonist,TRPML1 blocker,TRPV1 PAM,Menin-MLL FL inh,Sfp inh
Cc1ccccc1OCC(=O)NCC(=O)N/N=C/C=C/c1ccccc1,.,.,.,.,?,2.8,21%
CCc1ccc(C2c3[nH]c4ccccc4c3CCN2C(=O)c2cc(C)nn2C)cc1 (stereo not given),7%,-4.9%,6%,11,-18,1.3,-6%
Cc1cccc(Cn2c(C)nc3ccc([N+](=O)[O-])cc3c2=O)c1,-18%,.,-4%,-2,8,-0.6,-4%
CNC(=S)NNc1nc(-c2ccccc2)c2cc(Cl)ccc2n1,-16%,.,?,-6,.,.,.
O=S1(=O)CCOCCCN1Cc1ccccc1F,.,-2.4%&-1.4%,4%,-2,-9,0.8,17%
COc1ccc(OC)c(C(=O)c2ccc(Cl)cc2)c1,2%[15.4 µM],-5.0%,-13%,-23,30,8.0,1%
COc1ccc(CNC(=O)CNC(=O)N2CC(=O)Nc3ccccc32)cc1,-5%,-0.8%,21%,1,-13,.,2%
O=C1c2cccc3c([N+](=O)[O-])ccc(c23)C(=O)N1c1ccc(Cl)cn1,?,-3.3%,15%,23,-15,?,-13%
CC(=O)N1c2c(cc(Br)cc2S(=O)(=O)N2CCCCC2)CC1C (stereo not given),-5%,.,1%,32,?,-1.0,-5%

# Screening data: PubChem BioAssay, National Center for Advancing Translational Sciences (NCATS)
